Vaccinia Venus: qHTS for Stage-Specific Inhibitors of Vaccinia Orthopoxvirus: Venus Reporter Primary qHTS | Vaccinia virus Venus reporter expression, fluorescence | Potency, µM (titrated, usually from 36.5 µM), for the others: top-dose activity change, negative = inhibition, usual class: inhibitors | 330,000 compounds, 0.46% hits; active means well fitted inhibition curve with a large enough effect; inconclusive means small, poorly fitted or top-dose-only effect; inactive means no such curve, though single readings can be large or run the other way; tested in A549 cells; further: nearly all actives have a fitted effect of over 30% in size; inactives centre near -10
Vaccinia mCherry: qHTS for Stage-Specific Inhibitors of Vaccinia Orthopoxvirus: mCherry Reporter Primary qHTS; Vaccinia virus mCherry reporter infection, fluorescence; about a quarter of the inactives have no number; Potency, µM (series often up to 36.5 µM), for the others: at the top dose activity change, negative = inhibition, most hits filed as inhibitors; 310,000 compounds, 0.63% hits; active = well fitted inhibition curve with a large enough effect; inconclusive = small, poorly fitted or top-dose-only effect; inactive = no such curve, though single readings can be large or run the other way; tested in A549 cells; further: nearly all actives have a fitted effect of over 35% in size; inactives centre near -10
Numbers without * were called inactive; i = inactive; ? = inconclusive; nt = not tested or not shown; & = joins results of further samples; [ ] = remark or other dose. On the % scale 0 is the no-effect control and ±100 the full control effect; potency means the concentration at half of the fitted maximal effect.

entry	molecule	Vaccinia Venus	Vaccinia mCherry
1	CCOc1ccc(N(CC(=O)NC2CC3CCC2C3)S(=O)(=O)c2ccccc2)cc1 (stereo not given)	-19%	-24%
2	O=c1oc2ccccc2c(Nc2ccccc2O)c1[N+](=O)[O-]	?	?
3	O=C(/C=N/O)NCCN1CCCCC1	1%	-3%
4	Cc1nn(C)c(Cl)c1/C=C/C(=O)O	3%	-10%
5	CCNC(=S)NNC(=O)Cn1c(=O)c2c(ncn2CCOC)n(Cc2ccccc2)c1=O	0%	i
6	CCCCNC(=O)CCCCCn1c(=O)[nH]c2ccccc2c1=O	0%	-9%
7	CC(C)CCOP(=O)(c1ccc(N(C)C)cc1)C(O)c1ccc(Cl)cc1Cl (stereo not given)	?	?
8	CCn1c(N)[n+](CC(=O)Nc2ccc(SC(F)F)cc2)c2ccccc21	-24%	?
9	CCCCN1C(=O)C(O)(CC(=O)c2ccc(C)cc2C)c2cc(Br)ccc21 (stereo not given)	-28%	?
10	CCC(C)(C)NC(=O)C(c1sccc1C)N(Cc1ccco1)C(=O)c1csnn1 (stereo not given)	-7%	i
11	O=C(c1ccccc1-c1nc2ccccc2[nH]1)N1CCOCC1	-21%	nt
12	CN(C)CC(=O)Nc1ccc(Oc2ccc(Cl)cc2)cc1	-16%	-9%
13	CC(=O)NC(Cc1cccc(F)c1)C(=O)NC1CCN(C(=O)Nc2ccccc2)CC1 (stereo not given)	-20%	-12%
14	O=C(NC1CC1)C1=C[C@@H](c2ccc(Br)cc2)C[C@@H](OCc2ccc(CO)cc2)O1	-20%	?
15	Cc1nc(S/C(=C/c2ccc(-c3ccc(Cl)cc3)o2)C(=O)O)n[nH]1	5%	nt
16	Cc1ccccc1-n1c(SCC(=O)NCC2CCCO2)nnc1-c1ccncc1 (stereo not given)	-11%	i
17	CCOC(=O)C1=CN(Cc2ccco2)S(=O)(=O)NC1c1ccc(C(F)(F)F)cc1 (stereo not given)	-18%	-25%
18	COc1ccccc1NC(=O)NCC(=O)Nc1ccc(F)c(F)c1	-3%	i
19	O=C1NC2=C(C(=O)OC2)C(c2ccc(OC(F)(F)F)cc2)N1 (stereo not given)	-10%	-3%
20	Oc1ccc(NC(=S)Nc2ccccc2)cc1	-17%&8%	?
21	CC(=O)CC1CCCCN1 (stereo not given)	2%	-4%
22	COc1cc(OC)c(C2CC(=O)Nc3ccc4ccccc4c32)cc1OC (stereo not given)	-9%	-23%
23	CCCCCOC(=O)C1=C(C)NC(=O)NC1c1ccc([N+](=O)[O-])cc1 (stereo not given)	-23%	i
24	COc1c(C)cc(C(O)c2ncc(-c3ccc4ccccc4c3)[nH]2)cc1C (stereo not given)	-10%	-22%
25	O=C(N/N=C/c1c(O)ccc2ccccc12)C(=O)N1CCCC1	?	?
26	CC(C)Sc1nc(SCC(=O)NCc2ccco2)c2c3c(sc2n1)COC(C)(C)C3	-18%	i
27	O=C1CC(c2ccc(OCCCCCOc3ccc(C4CC(=O)NC4=O)cc3)cc2)C(=O)N1 (stereo not given)	-12%	-14%
28	COc1ccccc1CNC(=O)CCn1c(=O)sc2ccccc21	2%	-12%
29	COCCCn1cc(C(=O)c2cc(OC)ccc2OCC(=O)N2CCCCC2C)cc(C#N)c1=O (stereo not given)	-2%	-12%
30	O=C(c1ccco1)N1CCN(C(=O)C2CCCO2)CC1 (stereo not given)	7%	0%
31	O=C(CCc1ccccc1)N=C1SC2CS(=O)(=O)CC2N1c1ccccc1F (stereo not given)	-13%	-22%
32	COC(=O)c1c(NC(=O)Cc2coc3ccc(C)cc23)sc2c1CCC2	-10%	4%
33	CC1(C)CC(=O)c2cc(OCC(=O)NCCN3CCCc4ccccc43)ccc2O1	-12%	-5%
34	COc1ccc(S(=O)(=O)Nc2cccc(C)n2)c2ccccc12	?	nt
35	COC(=O)N1CN(C(=O)OC)CN(C(=O)OC)C1	-5%	-17%[1.46 µM]
36	OB(O)c1ccc(Br)cc1	10%	-6%
37	O=C(N=Nc1c(O)[nH]c2ccc(Cl)cc12)c1cc(-c2cccs2)nc2ccccc12	-4%	-12%
38	COc1ccc(S(=O)(=O)N(C)CC(=O)NC2CCCC2)cc1OC	-8%	i
39	O=C(c1cc(-c2ccc3c(c2)OCO3)on1)N1CCCCC1	10%	10%
40	CCC(C)C1NC(=O)C(NC(=O)C(CC(C)C)N(C)C(=O)C2CCCN2C(=O)C(C)O)C(C)OC(=O)C(Cc2ccc(OC)cc2)N(C)C(=O)C2CCCN2C(=O)C(CC(C)C)NC(=O)[C@H](C)C(=O)[C@H](C(C)C)OC(=O)CC1O (stereo not given in full)	?	?
41	COc1ccc(/C(O)=C2/C(=O)C(=O)N(CCN(C)C)C2c2cccnc2)cc1C (stereo not given)	-13%	-7%
42	O=C(C1CC(=O)N(C2CCCCCCC2)C1)N1CCC2(CC1)OCCO2 (stereo not given)	-1%	i
43	Cc1nc([N+](=O)[O-])cn1CC(=O)c1ccccc1	-5%	i
44	CC1Cc2ccccc2N1C(=O)CN(C)S(=O)(=O)c1cccc2cccnc12 (stereo not given)	-1%	4%
45	CC(NC(=O)CSc1nc2ccccc2n1C)c1ccccc1 (stereo not given)	-1%	-5%
46	CN1CCN(C(=O)C2=C[C@H](C3CC3)C[C@H](OCc3ccc(CO)cc3)O2)CC1	-6%	i
47	C=Cc1ccc(Cn2nc(-c3ccc(C)c(S(=O)(=O)N(CC)CC)c3)ccc2=O)cc1	-17%	-23%
48	CCOc1ccc(N(C(C)C(=O)N/N=C(\C)C(C)(C)C)S(C)(=O)=O)cc1 (stereo not given)	-6%	-4%
49	CS(=O)(=O)N1CCCC(C(=O)N2CCC3(CC2)OCCO3)C1 (stereo not given)	-6%	-13%
50	CC(=O)Nc1ccc(NC(=O)C(C)OC(=O)CN2C(=O)C3CCCCC3C2=O)cc1 (stereo not given)	-13%	-11%
51	COc1ccc(/C=N\NC(=O)C2COc3ccccc3O2)cc1O (stereo not given)	-18%	-9%
52	COc1ccc(S(=O)(=O)NCCSCc2ccco2)cc1OC	-9%	-19%
53	Cc1ccc(N(CC(=O)Nc2cc(Cl)ccc2Oc2ccccc2)S(C)(=O)=O)cc1C	?	nt
54	COc1ccc(C(=O)[C@@H]2CC[C@](C)(C(=O)O)C2(C)C)cc1	-5%	-25%
55	C[C@@H]1CN([C@H](C)CO)C(=O)CCCn2nncc2CO[C@@H]1CN(C)S(=O)(=O)c1ccccc1F	3%	-7%
56	Cc1cccc(S(=O)(=O)c2cn(Cc3ccc(F)cc3)c3cc(N4CCOCC4)c(F)cc3c2=O)c1	-7%	-11%
57	Cc1cc(=O)[nH]c(N/N=C/c2c(C)nn(-c3ccccc3)c2Cl)n1	-15%	i
58	Nc1ncnc2nn(C3OC(CO)C(O)C3O)nc12 (stereo not given)	?	-25%
59	Cc1ccc(CNC(=O)c2ccccc2-n2cnnn2)cc1	-7%	i
60	O=C(CN(c1ccccc1)S(=O)(=O)c1ccccc1[N+](=O)[O-])Nc1cccnc1	-12%	-8%

By substructure: those above containing an NH in an aromatic ring.
entry	molecule	Vaccinia Venus	Vaccinia mCherry
6	CCCCNC(=O)CCCCCn1c(=O)[nH]c2ccccc2c1=O	0%	-9%
11	O=C(c1ccccc1-c1nc2ccccc2[nH]1)N1CCOCC1	-21%	nt
15	Cc1nc(S/C(=C/c2ccc(-c3ccc(Cl)cc3)o2)C(=O)O)n[nH]1	5%	nt
24	COc1c(C)cc(C(O)c2ncc(-c3ccc4ccccc4c3)[nH]2)cc1C (stereo not given)	-10%	-22%
37	O=C(N=Nc1c(O)[nH]c2ccc(Cl)cc12)c1cc(-c2cccs2)nc2ccccc12	-4%	-12%
57	Cc1cc(=O)[nH]c(N/N=C/c2c(C)nn(-c3ccccc3)c2Cl)n1	-15%	i

Further entries follow.
entry	molecule	Vaccinia Venus	Vaccinia mCherry
61	CCOC(=O)c1nnc(-c2ccc(C)cc2)nc1Sc1ccc(Cl)cc1	0%	i
62	COc1ccc(NC(=O)Nc2cccc(-c3noc(C)n3)c2)cc1	-10%	-15%
63	CCCNC(=O)C(Cc1ccccc1)NC(=O)c1ccccc1 (stereo not given)	-7%	i
64	Fc1ccc(-n2ncc3c(NCCC4=CCCCC4)ncnc32)cc1	-2%	-10%
65	O=C(Nc1cccnc1)c1cc(-c2cccs2)on1	-10%	i
66	CCOC(=O)N1N=C(C)CC1(O)c1ccc(Cl)cc1 (stereo not given)	-9%	7%
67	CC(C)c1cccc(-c2csc(C(O)c3ccco3)n2)c1 (stereo not given)	-2%	29%
68	C=CCNC(=O)/C(=C/c1ccccc1OCC)NC(=O)c1ccccc1	-7%	-16%
69	COc1ccccc1NC(=O)CN1CCN(CC(=O)Nc2ccccc2F)CC1	-6%	-6%
70	CC1CCN(S(=O)(=O)c2ccc3c(c2)N(CC(=O)NCCc2ccccc2)C(=O)CO3)CC1	-11%	-2%
71	COc1cccc(NC(=O)c2cnc(NS(=O)(=O)c3ccccc3)nc2)c1	-3%	-23%
72	CCOc1ccc(N2CC(C(=O)Nc3nnc(C4CCCCC4)s3)CC2=O)cc1 (stereo not given)	-10%	-29%
73	O=C(Cc1cccc(C(F)(F)F)c1)OCN1C(=O)c2ccccc2C1=O	3%	13%
74	Cc1ccc(-c2nn(-c3ccccc3)cc2C(=O)NCC(c2cccs2)N2CCOCC2)cc1 (stereo not given)	-11%	i
75	N#C/C(=C\c1ccc(OC(=O)c2ccccn2)cc1)C(N)=O	-10%	-11%
76	COc1ccc(CCN2C(=S)N(c3ccc(Cl)cc3)C(=O)C2CC(N)=O)cc1OC (stereo not given)	-26%	?
77	COCCn1c(SCC(=O)Nc2ccc(OC)cc2)nnc1-c1ccoc1C	-1%	5%
78	NC(=O)CCC(NS(=O)(=O)c1ccc(Cl)cc1)C(=O)NCc1ccccc1Cl (stereo not given)	-19%	-1%
79	O=C(OCc1c(Cl)nc2sccn12)c1cc2c(s1)CCCC2	-7%	-1%
80	Cc1cc(OCCCC(=O)Nc2cc(S(=O)(=O)N3CCOCC3)ccc2N2CCOCC2)ccc1Cl	-28%	?
81	Cn1c(=NC(=O)c2cnccn2)sc2ccccc21	-14%	i
82	COC(=O)CSc1nc(C)cc(C(F)(F)F)c1C#N	-18%	nt
83	Nc1c(C(=O)NCc2ccc3c(c2)OCO3)c2nc3ccccc3nc2n1CCCN1CCOCC1	?	?
84	O=c1ccn2c(n1)SC(c1ccccc1)C2 (stereo not given)	-6%	-13%
85	Cc1cccc(CNc2ccnc(-c3ccoc3)n2)c1	?	?
86	CC(=O)c1c(O)cc(=O)oc1-c1ccc(C)cc1	23%	i
87	CSCCC(NC(=O)COc1ccccc1)C(=O)N1CCN(c2ccccc2O)CC1 (stereo not given)	-14%	-3%
88	COCc1nnc(NC(=O)C2CCN(C(=O)c3ccco3)CC2)s1	-1%	1%
89	CC(=O)N1CCCC(C(=O)c2ccc(Oc3ccccc3)cc2)C1 (stereo not given)	-11%	i
90	C=Cc1ccc(Cn2c(C)c(C(=O)NCc3cccc(C)c3)sc2=O)cc1	0%	3%
91	c1ccc(Cn2ncc3c(N4CCOCC4)ncnc32)cc1	26%	14%
92	Cc1ccc(S(=O)(=O)Nc2ccc(NC(=O)c3cccnc3)cc2)cc1	-10%	-9%
93	O=C1CN(C(=O)/C=C/c2cc(Br)ccc2F)CCN1	-5%	1%
94	COc1ccc(Cl)cc1NS(=O)(=O)c1cccc(C(=O)NCC2(N(C)C)CCCCC2)c1	-19%	?
95	CCN(CC)c1ccc(NC(=O)CN(C)Cc2cccs2)cc1	-13%	?
96	O=C(NCc1ccccn1)/C(=C/c1ccco1)NC(=O)c1ccccc1	-4%	-5%
97	O=C(COC(=O)/C=C/c1ccc(Cl)cc1Cl)Nc1cc(C(F)(F)F)ccc1N1CCOCC1	-6%	-8%
98	Cc1cccc(N2CCN(C(=O)c3cc4c(=O)n(C)c5ccccc5c4s3)CC2C)c1 (stereo not given)	2%	-14%
99	CC(C)OCCCNC(=O)c1cc2c(-c3ccc(Cl)cc3)nn(C)c2s1	-5%	-8%
100	C/C=C/C(=O)OCC(=O)Nc1ccc(OC)c(OC)c1	?	?
101	CS(=O)(=O)c1ccc2nc(NC(=O)c3ccc(Cn4cc(Br)cn4)o3)sc2c1	-12%	-6%
102	CN(/N=C/c1cccs1)c1cc(=O)n(C)c(=O)[nH]1	1%	nt
103	CCn1ccc2cc(S(=O)(=O)N3CCCN(C(=O)NCC(=O)OC)CC3)ccc21	-1%	-13%
104	CCOC(=O)C(=O)N1CCN(c2cc3c(cc2[N+](=O)[O-])n(C)c(=O)n3C)CC1	2%	i
105	c1ccc(OCCOCCN2CCOCC2)cc1	3%	i
106	C=C1C(=O)N(C)CCC1C(CC)C(=O)OC (stereo not given)	0%	-4%
107	COc1cc(-c2nnc(CSc3nnc(Nc4ccc(Oc5ccccc5)cc4)s3)o2)cc(OC)c1OC	-26%	?
108	CCC(C)NC(=O)CN1C(=O)NC2NC(=O)NC21 (stereo not given)	-13%	-9%

Record cards, as listed above. Screens in order: Vaccinia Venus	Vaccinia mCherry
CN(/N=C/c1cccs1)c1cc(=O)n(C)c(=O)[nH]1 is entered as 1%	nt
O=C(COC(=O)/C=C/c1ccc(Cl)cc1Cl)Nc1cc(C(F)(F)F)ccc1N1CCOCC1 is entered as -6%	-8%
c1ccc(OCCOCCN2CCOCC2)cc1 is entered as 3%	i

Random draw from the library. Share with any hit: about 0.87%.
